Rango complex inh: prevents formation of the Rango-importin beta complex. Q14974. Rango CFP/YFP FRET sensor + importin beta, 45 min. Potency, µM (doses to about 92.2 µM), for the others: top-dose inhibition of complex formation. hit rate 0.031% among 340,000. AID 540263; active = rising FRET ratio curve, often small or poorly fitted; inconclusive = mostly compound fluorescence or quenching in the first reads; inactive = flat curves in all reads;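 also: potency is read from the fitted curve at half-maximal effect; 0% = DMSO wells and 100% = buffer wells lacking importin beta; nearly all actives have a fitted effect of over 15% in size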
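FRET biosensor Rango (snurportin 1 IBB between N-terminal EYFP and C-terminal Cerulean), 50 nM in PBS/1 mM DTT/0.02% Tween-20/0.1% BSA, preincubated 5 min RT with compound; 0.125 microM importin beta added, 45 min RT, CFP/YFP FRET ratio read.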
Rango release inh: inhibitors of RanGTP-induced Rango-importin beta complex dissociation. O95149+P62826. Biochemical FRET Rango-importin beta, RanGTP-induced dissociation. Potency, µM (highest dose often 46.1 µM), inactives show top-dose activity change, negative = inhibition. hit rate 0.071% among 340,000. AID 540253; active means falling FRET ratio curve, often poorly fitted, with flat reads before Ran was added; inconclusive means other falling curves, or compound fluorescence or quenching; inactive means flat or rising ratio curve;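 also: potency is read from the fitted curve at half-maximal effect; % of control where 0% means no effect; nearly all actives have a fitted effect of over 45% in size; -100% = wells without RanGTP and RCC1; the record marks most hits as doubtful in a second field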
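Recombinant Rango FRET biosensor (EYFP–snurportin 1 IBB–cerulean CFP10) at 0.1 uM premixed with 0.25 uM importin beta in PBS, 1 mM DTT, 0.02% Tween-20, 0.1% BSA. Compound added 5 min; RanGTP-RCC1 (0.6 uM Ran, 2 mM GTP, 0.2 uM RCC1) then triggers release, read at 45 min.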
GLA inh pH 4.5: alpha-galactosidase A (human) inhibition, pH 4.5; P06280; purified enzyme, 4-MU-alpha-Gal fluorescence, pH 4.5; activity change, negative = inhibition, % at 105 µM; 230,000 tested, under 10 active; AID 1467; inconclusive = small, poorly fitted or top-dose-only inhibition, or a rising curve; inactive = flat fitted curve, though single readings scatter; no compound was filed as active;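 also: 0% = full activity with enzyme and -100% = basal without enzyme; dose as in the result columns while the protocol names 77 µM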
Target sequence (P06280 whole entry, looked up): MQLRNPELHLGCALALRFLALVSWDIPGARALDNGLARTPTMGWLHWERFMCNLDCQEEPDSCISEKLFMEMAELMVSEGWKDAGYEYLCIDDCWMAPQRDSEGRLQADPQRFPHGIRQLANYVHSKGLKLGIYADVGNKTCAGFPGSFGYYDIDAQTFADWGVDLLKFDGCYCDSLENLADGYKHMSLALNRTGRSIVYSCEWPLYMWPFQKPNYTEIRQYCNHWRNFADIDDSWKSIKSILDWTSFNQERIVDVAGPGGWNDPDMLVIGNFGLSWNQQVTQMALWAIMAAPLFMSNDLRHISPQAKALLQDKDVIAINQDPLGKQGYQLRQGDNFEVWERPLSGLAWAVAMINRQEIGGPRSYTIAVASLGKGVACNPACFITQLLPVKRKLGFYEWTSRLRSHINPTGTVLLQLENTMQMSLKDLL
miR-21 reporter: miR-21 reporter, rising signal; HeLa miR-21 FLuc reporter, luciferase, 48 h; Potency, µM (titrated, usually from 38.3 µM), for the others: at the highest dose reporter change, positive = more light; 340,000 tested, under 10 active; active = well fitted rising curve with a large enough effect; inconclusive = small, poorly fitted or top-dose-only effect; inactive = no such curve, though single readings can be large or run the other way;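 also: % of control where 0% means no effect; miR-21 action dims this reporter so a rising signal means less miR-21 action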
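HeLa miR-21-FLuc reporter line, endogenous miR-21; 2000 cells/well in DMEM/10% FBS; compound titration up to ~40uM final, 48 h, 37 degree Celsius; luciferase detection reagent, 15 min lysis, CCD luminescence.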
Numbers without * were called inactive; ? = inconclusive; . = not tested or not shown; & = joins results of further samples. Only part of the results is shown; count on the stated rates, not on these rows.

molecule	GLA inh pH 4.5	miR-21 reporter	Rango complex inh	Rango release inh
COC(=O)c1cc(=O)n(Cc2ccco2)c(=Nc2ccc(F)c(Cl)c2)s1	-1	?	4.2%	7%
CCC(NC(=O)OCc1ccccc1)C(=O)Oc1ccc2ccc(=O)oc2c1 (stereo not given)	.	0%	?	?
C[C@H](CO)N1C[C@H](C)[C@@H](CN(C)S(=O)(=O)c2ccc(F)cc2)Oc2ccc(NC(=O)c3ccncc3)cc2C1=O	.	.	-0.9%	4%
CCC(C)(C)n1nnnc1C(c1ccccc1F)N1CCC(C(N)=O)CC1 (stereo not given)	3	-1%	0.8%	20%
COC(=O)Nc1ccc(OC)c(OC)c1	8	0%	4.6%	25%
Cc1nc([N+](=O)[O-])c(C(=O)OCc2ccccc2F)n1C	-10	-22%	-0.6%	55%
CC(C)c1ccc(NC(=O)COC(=O)C2CC3C=CC2C3)cc1 (stereo not given)	.	.	2.3%	20%
O=C(NNc1cc(Cl)cc(Cl)c1)c1cccs1	-4	-12%	?	-13%
COc1ccc(C2/C=C\CN(CC(C)(C)C)CC(=O)N2Cc2ccc(F)cc2)cc1 (stereo not given)	-3	4%	?	-12%
O=C(N1CCOCC1)N1CCC(NC(=O)C23CC4CC(CC(C4)C2)C3)CC1	4	-11%	-2.4%	-8%
O=C(c1ccc2ccccc2c1)N1CCc2ccccc21	.	-55%	4.2%	?
O=C(Nn1cnnc1)c1ccncc1	-5	-1%	-3.0%	0%
CCc1ccc(OCC(=O)Nc2ccncc2)c(Br)c1	.	-10%	-3.0%	-13%
Cc1ccc(C)c(N2CCN(C(=O)CCNS(=O)(=O)c3ccc4c(c3)oc(=O)n4C)CC2)c1	.	21%	-2.7%	-8%
O=C(Nc1ccc2c(c1)CCC2)c1cnccn1	0	-55%	-4.8%	14%
O=C1C=CN2CCCC2CC1 (stereo not given)	.	.	?	-2%
Cc1ccc(-n2c3c(c(O)c(-c4ccccc4)c2=O)C(=O)CC(C)(C)C3)cc1	2	-8%	-2.2%	21%
Cc1ccc(S(=O)(=O)N(C)CCCC(=O)Nc2ccc(C)cc2C)cc1	3	-7%	-2.4%	-7%
CCOC(=O)N1CCN(CC(=O)Nc2cc3c(cc2C(C)=O)OCO3)CC1	7	0%	3.6%	8%
CCOC(=O)c1nc(N)c(C(=O)OCC)[nH]1	1	-5%	-1.2%	3%
CC(=O)Oc1ccc2c(=O)c(Oc3ccccc3[N+](=O)[O-])coc2c1	-12	-10%	2.9%	-6%
CC(C)c1ccc(C(=O)COC(=O)C(O)c2ccccc2)cc1 (stereo not given)	.	.	2.2%	-12%
CCOC(=O)c1c(NC(=S)Nc2ccccc2)sc2c1CC(C)(C)SC2	7	-6%	?	-17%
CCCCCC(=O)Nc1ccc(C(=O)N/N=C/c2ccc([N+](=O)[O-])cc2)cc1	-4	-8%	0.5%	-9%
Cc1ccc(/C=N/NC(=O)c2nn(C)cc2Cl)cc1	-3	-57%	3.5%	2%
O=C(CSc1nnc(-c2ccco2)n1-c1ccccc1)N1CCOCC1	1	-5%	1.1%	1%
Cc1ccc(NC(=O)Cc2nc(COC(=O)C(C)NS(=O)(=O)c3ccc(C)cc3)cs2)cc1 (stereo not given)	.	.	-1.3%	-16%
CCNC(=S)N=Nc1c(O)[nH]c2ccc([N+](=O)[O-])cc12	-5	0%	0.2%	20%
O=C(O)Cn1nc(-c2ccccc2)c2ccccc2c1=O	-22	-5%	7.2%	0%
O=C(NCc1ccc2c(c1)OCO2)c1ccc(=O)[nH]c1	0	-2%	4.0%	3%
Cc1cc(C)n(C/C=C/Cn2nc(C)cc2C)n1	-2	-9%	0.7%	9%
O=C(NCCCc1ccccc1)c1ccc(Br)o1	6	-33%	-4.0%	12%
O=S1(=O)N=C2CCCCCN2C(c2ccc(Br)cc2)N1 (stereo not given)	0	2%	0.1%	1%
COCCN(C(=O)CCC(=O)Nc1nccs1)C(C(=O)NCCC(C)C)c1ccc(OC)cc1 (stereo not given)	.	4%	-1.5%	2%
Cc1cc(NC2CCCCC2)nc2ccccc12	2	-17%	-3.8%	10%
COc1ccc(-c2cnc3c(-c4ccc(F)cc4)cnn3c2N)cc1	.	-80%	-0.8%	-3%
O=C(COc1ccc(-c2nnco2)cc1)Nc1c(Cl)cccc1C(F)(F)F	.	.	-0.3%	-17%
COc1ccc(C(=O)N2CC(=O)Nc3ccc(F)cc3C2c2ccccc2)cc1 (stereo not given)	.	1%	-2.9%	12%
C=CCON/C(CCC)=C1\C(=O)C(C(=O)OC)C(C)(C)CC1=NC (stereo not given)	-7	4%	-3.9%	10%
Cc1ccc(C)n1-c1ccc(-c2ccnc(N)n2)cc1	0	-19%	?	15µM*
O=S(=O)(c1ccc2ccccc2c1)N1CCN(C(=S)Nc2ccc(F)cc2)CC1	-19	13%	7.5%	-7%
C[C@H](CO)N1C[C@H](C)[C@@H](CN(C)S(=O)(=O)c2cccs2)Oc2c(NS(=O)(=O)c3cn(C)cn3)cccc2C1=O	.	.	-0.4%	-9%
COc1ccccc1NC(=O)CSc1nnnn1Cc1ccccc1	-5	-12%	-1.2%	-5%
N#CC1=C(N)S[C@@H](C(=O)c2ccc(F)cc2)[C@@H]1c1cccs1	?	10%	?	?
Cc1cc(C(=O)NCc2ccccc2Br)no1	-5	-24%	0.3%	7%
O=C(c1ccccc1)N1CCN(CC(O)COCC2CC=CCC2)CC1 (stereo not given)	5	-1%	0.1%	-1%
CC1CCN(CCC(=O)Nc2ccc(F)c(F)c2)CC1	.	-1%	2.1%	4%
CCN1C(=S)SC(=O)C1=C1C=C(C)N(CCOC)C(C)=C1	-14	-49%	.	.
COc1cccc(N(CC(=O)N/N=C(\C)c2cccs2)S(C)(=O)=O)c1	-6	-4%	3.7%	-2%
Cc1cc(C)n(CC(O)CN(c2ccccc2)S(=O)(=O)c2ccc3ccccc3c2)n1 (stereo not given)	-4	4%	-1.2%	21%
CCCCCc1cc(=O)oc2c(C(CCN3CCCCC3)c3ccc4c(c3)OCO4)c(OC)cc(OC)c12 (stereo not given)	0	?	-1.1%	10%
Cc1ccnc(NC(=O)c2cc(F)c(F)cc2Cl)n1	.	-2%	5.0%	9%
COc1cc2c(cc1OC)C(=O)N1[C@H]3c4cc(C)ccc4OC[C@@H]3[C@H](c3ccccc3)[C@]1(C)C(=O)N2	.	.	?	-5%
C#CCSc1nnc(CSc2nc3ccccc3s2)n1-c1ccccc1	-3	6%	1.8%	5%
CC1(C)Cc2c(sc3nc4n(-c5ccccc5)cnn4c(=O)c23)CO1	-12	0%	11%	-1%
COc1ccc(Cl)cc1C(=O)NCC(C)C	8	-12%	-1.7%	17%

Additional records follow.
molecule	GLA inh pH 4.5	miR-21 reporter	Rango complex inh	Rango release inh
COc1cc2nc3occc3c(OC)c2cc1OC	-1	-36%	-0.3%	-14%
Cc1cccc(NC(=O)Cn2nnc(C(=O)NCc3ccco3)c2N)c1	-14	5%&2%	0.4%	-2%
CS(=O)(=O)N(Cc1ccc(Cl)cc1)c1ccc(C(=O)Nc2cccnc2)cc1	-1	14%	0.2%	2%
Cc1ccccc1-c1noc(CNC(=O)COc2ccccc2)n1	.	-5%	-1.6%	11%
Cc1ccc(CNC(=O)c2cc(C3CC3)nc3c2cnn3C(C)C)cc1	.	.	-0.1%	-2%
O=C(CSc1ncn[nH]1)c1cccc([N+](=O)[O-])c1	-13	0%	0.3%	5%
COc1ccc(-c2csc(NC(=O)c3ccc(S(C)(=O)=O)cc3)n2)cc1	4	-41%	2.7%	1%
Cc1ccc(S(=O)(=O)N2CCN(c3ccccc3)CC2)cc1C(=O)NC1CCCCC1	.	7%	2.7%	11%
COc1ccccc1CCNC(=O)CSc1nnc2ccc(-c3ccncc3)nn12	0	-14%	0.3%	43%
CCn1nc(C(=O)OCC(=O)Nc2nc(-c3ccc(OC)cc3)cs2)c2ccccc2c1=O	-4	-52%	-2.0%	3%
O=C(CSc1ncnc2nc[nH]c12)c1ccc2ccccc2c1	1	-13%	-1.4%	1%
NNC(=S)NC1CCS(=O)(=O)C1 (stereo not given)	-6	4%	-1.7%	3%
CCC1Oc2ccccc2N(CC(=O)Nc2ccc(OC)cc2OC)C1=O (stereo not given)	-4	-12%	?	7%
COc1ccc2c(c1)CC[C@@H]1[C@@H]2CC[C@]2(C)[C@@H](C(C)=O)C[C@@H]12	.	.	8.1%	13%
Cc1ccc(S(=O)(=O)Nc2cccc(C(=O)NCCCN3CCOCC3)c2)cc1F	.	.	0.1%	17%
O=C1N[C@@H](Cc2ccccc2)C(=O)N2[C@H]1C[C@]1(Br)c3ccccc3N(S(=O)(=O)c3ccccc3)[C@H]21	.	.	-0.2%	-2%
CCCCNC(=O)CS(=O)Cc1nc(-c2cccc(C)c2)oc1C (stereo not given)	4	-3%	-2.0%	8%
O=C(NC1CC1)c1ccc2c3c(cccc13)CC2	0	3%	-4.1%	4%
CCCC(C)NC(=O)CSc1nc(-c2ccccc2)cn1N (stereo not given)	-9	-2%	-2.7%	0%
COc1ccc(-c2noc(CN(Cc3nccn3C)C(C)C)n2)cc1	-4	-8%	-1.7%	1%
Cc1cccc(N2CCN(C(=O)c3ccc(S(=O)(=O)N(C)c4ccccc4)cc3)CC2)c1C	.	.	-3.2%	-9%
COc1ccc(C(OC(=O)c2ccco2)C(=O)NC(C)(C)C)cc1OC (stereo not given)	.	.	?	8%
Cn1ncc(Br)c1C(=O)NC1C2CC3CC(C2)CC1C3 (stereo not given)	0	26%	-2.4%	4%
COc1cc(C)c(CN2CCN(c3ncccn3)CC2)cc1C	.	.	?	15%
N#CCCN(C(=O)COC(=O)c1ccc2c(c1)NC(=O)CS2)c1ccc2c(c1)OCCO2	2	8%	1.5%	4%
Cc1ccc2[nH]c(-c3ccccc3)c(CN3CCN(C)CC3)c(=O)c2c1	0	-8%	3.1%	-6%
Nc1nonc1-n1nnc(C(=O)N/N=C/c2cccc(Cl)c2)c1CN1CCCC1	.	.	0.2%	4%
COc1ccc(C2SCC(=O)N2c2c(C)n(C)n(-c3ccccc3)c2=O)c(OC)c1 (stereo not given)	5	-13%	3.1%	-9%
C=CCn1c(SCCC#N)nnc1-c1ccncc1	-2	-8%	2.0%	-3%
c1ccc(N2CCN(c3cnccn3)CC2)nc1	-1	-21%	2.5%	4%
CC(=O)Nc1ccc(S(=O)(=O)N2CCN(c3nc(C)cc(C)n3)CC2)cc1	.	-3%	0.4%	-3%
